# CBX7 inh: CBX7 chromodomain binding inhibitors, primary screen, biochemical, AlphaScreen | Chromobox protein homolog 7 (Homo sapiens), O95931 | AlphaScreen His6-CBX7 / biotin-H3K27me3 peptide binding; active compounds read low | normalised signal (fraction of DMSO) (test concentration not listed) | actives 1.1% (n = 66,000); in the data active means normalised signal below about 0.5;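 further: 100 nL library stock added to about 20 µL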
# Target sequence (O95931 whole entry, looked up): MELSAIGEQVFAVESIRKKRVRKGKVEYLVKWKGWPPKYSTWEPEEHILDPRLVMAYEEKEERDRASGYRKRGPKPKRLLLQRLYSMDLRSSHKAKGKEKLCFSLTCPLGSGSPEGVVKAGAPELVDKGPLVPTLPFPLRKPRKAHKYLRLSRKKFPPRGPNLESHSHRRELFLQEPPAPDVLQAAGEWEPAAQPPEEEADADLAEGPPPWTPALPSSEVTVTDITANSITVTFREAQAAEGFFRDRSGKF
# CBX7 inh z-score: second read-out of CBX7 inh, no call of its own (marks repeat the call); z-score; measured here: z-score of CBX7 signal; some inactives read as strong as hits; reference of the scale not given here;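 same signal on another scale; lower means less binding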
# Active calls of the source: *. The list is partial. The share of hits here may be higher or lower than overall.
Molecule	CBX7 inh z-score	CBX7 inh
Cc1ccc(-c2nnc(OCc3cccnc3)c3ccccc23)cc1	-0.22	0.94
CNC(=O)c1ccc(-c2nn(C)c(=O)c3ccccc23)cc1	-0.039	1
COc1ccc(Cl)cc1NC(=O)Nc1ccc2c(c1)N(C)C(=O)CS2	-1.5	0.93
Cc1cccc(C)c1Nc1c(-c2ccsc2)nc2cnccn12	-0.67	0.94
CCn1cc(C(=O)N2CC=C(c3ccccc3)CC2)c(=O)c2ccc(C)nc21	0.35	1
Clc1ccc(Nc2nc3nonc3nc2NCCc2ccccc2)cc1	-0.084	1
COc1cccc(-c2nn(C)c3sc(C(=O)N4CCOCC4)cc23)c1	-0.52	0.98
CCOC(=O)c1cnc2ccc(Cl)cc2c1Nc1ccc(N(C)C)cc1	-11	0.61
COc1ccc(NC(=O)CCNC(=O)Cn2ccc3ccccc3c2=O)c(OC)c1	0.67	1
CCc1ccc(C2CC(=O)Nc3cc4c(cc32)OCO4)cc1 (stereo not drawn)	-2.3	0.94
COc1cc(C2C(C(=O)Nc3ccccn3)=C(C)NC3=C2C(=O)CCC3)cc(OC)c1OC (stereo not drawn)	-0.16	0.92
COc1ccc(CNC(=O)C2CCC(Cn3c(=O)[nH]c4ccccc4c3=O)CC2)cc1 (stereo not drawn)	1	1.1
O=C1CC(c2ccc(Br)cc2)c2cc3c(cc2N1)OCO3 (stereo not drawn)	0.18	1
CCOc1cccc(C(=O)Nc2ccc(-c3nc4cc(Cl)ccc4o3)cc2)c1	1.2	1
Cc1ccc(S(=O)(=O)Nc2ccc3c(c2)ncn3C)cc1	0.063	1
CCc1ccc(OCC(=O)Nc2cccc(-c3nc4cc(C)ccc4o3)c2)cc1	-0.58	0.97
COc1ccc(NC(=O)c2ccc3c(c2)C(=O)N(c2ccccc2OC)C3=O)cc1	0.14	1
CCCCc1ccc(S(=O)(=O)Nc2cc(C)on2)cc1	2.8	1.1
N#Cc1c(SCc2ccccn2)nc2c(c1-c1cccs1)CCCC2	-2.1	0.76
Cc1cc(N2CCN(c3ncccn3)CC2)nc2ccc(NC(=O)C3CCC(C)CC3)cc12 (stereo not drawn)	2.5	1.1
COCCCNC(=O)c1cc(Sc2ccc(F)cc2)nc2ccccc12	-0.11	0.89
COc1ccc(-c2nnc(NC(=O)c3ccc(S(=O)(=O)N(C)C)cc3)o2)cc1	-16*	0.037*
O=S(=O)(c1cccc(-c2nnc(-c3ccccc3Cl)o2)c1)N1CCOCC1	-0.89	0.94
COc1ccccc1Cc1nc2ccccc2nc1SCC(=O)Nc1cccc(C(F)(F)F)c1	0.21	1
O=C(CSc1nnc(CNC(=O)c2c(F)cccc2Cl)o1)Nc1ccccc1	-1.5	0.91
CC1=C(C(=O)Nc2cccc(C)c2C)C(c2cccc(Br)c2)NC(=O)N1 (stereo not drawn)	0.62	1.1
O=C1CCCC2=C1C(c1ccsc1)CC(=O)N2c1ccc(F)cc1 (stereo not drawn)	0.55	1.1
Cc1noc(C)c1S(=O)(=O)N1CCCC(C(=O)NCc2ccccn2)C1 (stereo not drawn)	-0.28	0.98
Cc1nc2c(C(=O)NC3CC3)cnn2c(C)c1Cc1cccc(Cl)c1	-0.062	1
COC(=O)Cn1c(C(O)c2ccccc2)nc2ccccc21 (stereo not drawn)	-0.48	0.99

# Complete entries, looked up by structure:
# Results for O=S(=O)(c1cccc(-c2nnc(-c3ccccc3Cl)o2)c1)N1CCOCC1 → CBX7 inh z-score: -0.89; CBX7 inh: 0.94
# Results for Cc1noc(C)c1S(=O)(=O)N1CCCC(C(=O)NCc2ccccn2)C1 (stereo not drawn) → CBX7 inh z-score: -0.28; CBX7 inh: 0.98
# Results for COC(=O)Cn1c(C(O)c2ccccc2)nc2ccccc21 (stereo not drawn) → CBX7 inh z-score: -0.48; CBX7 inh: 0.99

# New compounds follow
Molecule	CBX7 inh z-score	CBX7 inh
CC(C)N1C(=O)CCC1C(=O)NCc1ccccc1 (stereo not drawn)	2.2	1.1
Cc1nc2c(cnn2-c2ccc(Cl)cc2)c(=O)n1-c1ccc(N2CCC(C)CC2)cc1	-2.3	0.86
COc1ccc2nc(SCC(=O)Nc3ccccc3Br)[nH]c2c1	-0.31	0.95
CCOCCCNC(=O)CN1C(=O)CSc2ccc(S(=O)(=O)N(C)C3CCCCC3)cc21	0.14	1
COc1ccc(Br)cc1C(=O)Nc1ccc(-c2nc3ccccc3s2)cc1	2	1.1
Cc1ccc(Nc2c(-c3ccsc3)nc3ccccn23)cc1	-2.9	0.92
COc1ccc(S(=O)(=O)N2Cc3ccccc3CC2C(=O)N2CCOCC2)cc1 (stereo not drawn)	1.8	1.2
CCn1c(=O)cc(OCC(=O)Nc2ccc(F)cc2)c2ccccc21	-3.2	0.8
NC(=O)c1cc(-c2ccccc2C(F)(F)F)no1	-0.83	0.93
COc1ccccc1-c1c(C)nn2c(N3CCc4ccccc43)cc(C)nc12	1	1.1
CCOC(=O)c1cnc2ccc(Br)cc2c1NCCc1ccc(OC)c(OC)c1	2.6	1.1
Cc1nc(N2CCN(c3ccccn3)CC2)c2c3c(sc2n1)CCCC3	-2.3	0.91
Cc1ccc(CC2CC(=O)N(c3cc(C)on3)C2=O)cc1 (stereo not drawn)	1.6	1.2
Cc1ccc(Sc2cc(C(=O)NCCCN(C)C)c3ccccc3n2)cc1	0.25	1
CS(=O)(=O)N(CC(=O)N1CCCCCC1)c1ccccc1Cl	0.53	1
O=C(CN1CCN(Cc2ccccc2F)C1=O)NCCCN1CCOCC1	-2.1	0.85
COc1cc(OC)cc(C(=O)Nc2cc(-c3nc4ccccc4o3)ccc2OC)c1	-0.41	0.88
O=C1NC(c2ccc3c(c2)OCO3)Nc2sc3c(c21)CCCC3 (stereo not drawn)	-0.023	1
COc1ccc2c(c1)CCc1sc(NC(=O)c3ccccc3Cl)nc1-2	-2.5	0.9
Cn1c(C(=O)O)c(CC(=O)NCC2COc3ccccc3O2)c2ccccc21 (stereo not drawn)	-1.5	0.89
O=C(NCC1(c2ccccc2)CCOCC1)c1ccccc1F	-0.36	0.99
c1ccc2nc(-c3ccc4c(c3)OCO4)ccc2c1	-0.92	0.92
CC1CCC(NC(=O)C2CCN(C(=O)c3cc4sccc4n3C)CC2)CC1 (stereo not drawn)	-0.57	0.97
Cc1cc(C)nc(SCc2nc3ccccc3n2Cc2ccccc2)n1	-0.41	0.99
Cc1ccc(F)c(NC(=O)CN2C(=O)CSc3ccccc32)c1	1.2	1
Cc1cccc(OCCn2c(NC(=O)c3ccccc3Cl)nc3ccccc32)c1	-7.1*	0.34*
Cc1c(C(=O)NCCCN2CCOCC2)oc2ccc(S(=O)(=O)N3CCOCC3)cc12	1.2	1
COc1cccc(C(=O)Nc2ccc(-c3nc4ccc(C)cc4s3)cc2)c1	2.4	1.2
Cc1ccc(C(=O)Nc2cccc(F)c2)cc1S(=O)(=O)N1CCOCC1	-0.78	0.97
COc1ccc(CCN2C(=O)C(Oc3ccccc3)C2c2ccc3c(c2)OCO3)cc1 (stereo not drawn)	0.18	1.1
COC(CNC(=O)CN1CCN(Cc2ccc(Cl)cc2)C1=O)OC	-0.91	0.93
CCOc1ccccc1-c1nc(-c2ccc(NC(=O)CCc3ccc(OC)cc3)cc2)no1	0.041	1
COc1cccc(CNC(=O)c2cc3c(-c4cccc(OC)c4)nn(C)c3s2)c1	-0.31	0.99
CCOCCCNC(=O)CSCc1nc(-c2ccc(C)cc2)oc1C	-0.47	0.97
O=C(Cc1c(C(=O)O)[nH]c2ccc(Cl)cc12)NCCc1ccc(Cl)cc1	0.12	1
CCN(CC)C(=O)c1cccnc1Oc1ccc(Cl)cc1	-1.6	0.9
O=C(c1cc2ccccc2oc1=O)N1CCCCC1	-0.89	0.95
COc1ccc(CNC(=O)C(C)N2C(=O)COc3ccc(Cl)cc32)c(OC)c1 (stereo not drawn)	-0.28	0.72
N#Cc1ccccc1NC(=O)Cn1ncc2c1-c1ccccc1OC2	0.64	1.1
Cc1c(C(=O)NCc2ccccc2)oc2ccc(S(=O)(=O)N3CCCCC3)cc12	-0.18	1
CCCCC1CCC(C(=O)N2CC(=O)Nc3ccc(F)cc3C2c2ccc(F)cc2)CC1 (stereo not drawn)	0.17	1
COc1ccc(CCNC(=O)c2ccc3nc(-c4ccccc4NC(C)=O)c(=O)[nH]c3c2)c(OC)c1	4.3	1.2
Cc1cc(C)nc(NC2=NCC(=O)N2c2ccccc2Cl)n1	0.19	1.1
COc1ccc(CCNC(=O)CC(C(=O)N2CCc3ccccc32)n2ccnc2)cc1OC (stereo not drawn)	0.79	1.4
COc1cccc(NC(=O)CNC(=O)Cn2c(C)cc3ccccc3c2=O)c1	0.26	1
Cc1cc(N2CCCCC2)nc2ccc(NC(=O)c3ccc4c(c3)OCO4)cc12	1.1	1
Cc1cc(NS(=O)(=O)c2ccc(Nc3nc(-c4c(C)nc5ccccn45)cs3)cc2)no1	-0.055	0.95
Cc1c(C(=O)Nc2ccc3c(c2)OCO3)sc2ncnc(N3CCc4ccccc4C3)c12	-2.6	0.8
O=C(C1CC1)N1CCc2cc(S(=O)(=O)NCc3ccc(F)cc3)ccc21	0.68	1.1
COc1ccc(C2(C(=O)NC(C)Cc3ccccc3)CCCC2)cc1OC (stereo not drawn)	-0.67	0.98

# Further results
Molecule	CBX7 inh z-score	CBX7 inh
CCCCCC(=O)Nc1ncc2c(n1)CC(c1cccc(Cl)c1)CC2=O (stereo not drawn)	-0.29	0.99
O=C(Nc1cc(-c2nc3ccccc3s2)ccc1Cl)c1cccnc1	-0.88	0.97
CC(C)Oc1ccccc1NC(=O)CSc1nc2ccccc2n1C	-0.73	0.81
COC(=O)c1cc(=O)nc2sc(-c3ccc(F)cc3)nn12	-2.7	0.75
COc1ccc(NC(=O)CCC(=O)Nc2ccc3nc(N4CCN(C)CC4)cc(C)c3c2)cc1OC	0.86	1
CCOc1ccc(Nc2nc(-c3cccnc3)cs2)cc1	-3.1	0.81
O=C(Nc1ccc(S(=O)(=O)N2CCCCC2c2cccnc2)cc1)c1ccc2c(c1)OCO2 (stereo not drawn)	0.44	1
CCOc1ccccc1NC1c2ccccc2C(=O)N1c1ccc(C)cn1 (stereo not drawn)	-1.6	0.95
Cc1c(C(=O)Nc2ccc3c(c2)OCO3)sc2ncn(CC(=O)N3CC(C)CC(C)C3)c(=O)c12 (stereo not drawn)	0.42	1
Cc1ccccc1CN1CCN(CC(=O)NCCC2=CCCCC2)C1=O	-0.95	0.95

# By substructure, the compounds so far with an NH in an aromatic ring
Molecule	CBX7 inh z-score	CBX7 inh
COc1ccc(CNC(=O)C2CCC(Cn3c(=O)[nH]c4ccccc4c3=O)CC2)cc1 (stereo not drawn)	1	1.1
COc1ccc2nc(SCC(=O)Nc3ccccc3Br)[nH]c2c1	-0.31	0.95
O=C(Cc1c(C(=O)O)[nH]c2ccc(Cl)cc12)NCCc1ccc(Cl)cc1	0.12	1
COc1ccc(CCNC(=O)c2ccc3nc(-c4ccccc4NC(C)=O)c(=O)[nH]c3c2)c(OC)c1	4.3	1.2

# Following part
Molecule	CBX7 inh z-score	CBX7 inh
COc1ccc(OC)c(Nc2nc(-c3ccccc3)c(CC(=O)O)s2)c1	-0.16	0.99
Cc1ccc(N2C(=O)CC2(C(=O)NC2CCCCC2)c2ccccc2F)cc1 (stereo not drawn)	-1.3	0.95
Cc1ccc(CNC(=O)c2ccc3c(c2)N(Cc2ccccc2F)C(=O)CS3)cc1	-0.89	0.98
COc1ccc(-c2nc3ccccc3o2)cc1NC(=O)COc1cc(C)ccc1C(C)C	-1.1	0.96
CCc1ccc(NS(=O)(=O)c2ccc3[nH]cc(C(=O)NCc4ccccc4OC)c(=O)c3c2)cc1	-3.1	0.88
CN1CCN(CC(=O)N2CC3CCCc4c3n(c3ccc(C5CCCCC5)cc43)C2)CC1 (stereo not drawn)	-4.9	0.5
Cc1cc2c(cc1C)C(c1ccc(F)c(Br)c1)CC(=O)N2 (stereo not drawn)	1.5	1.2
CNC(=O)COc1ccc(NC(=O)CCn2nc(-c3ccc(C)cc3)c3ccccc3c2=O)cc1	-0.76	0.97
O=C(C(NS(=O)(=O)c1cccc2cccnc12)c1ccccc1)N1CCc2ccccc21 (stereo not drawn)	-2.7	0.77
COc1ccc(Cl)cc1C(=O)NCCc1cc2ccc(C)cc2[nH]c1=O	-0.081	0.99
CCCC(O)(c1ccc(Cl)cc1)C(CN1CCOCC1)c1ccccc1 (stereo not drawn)	-6	0.72
COc1cccc(-c2cc(C(=O)NC3CCCC3)no2)c1	0.5	1.1
COc1ccccc1N1CCN(C(c2cccs2)C(C)NC(=O)C(=O)N2CCOCC2)CC1 (stereo not drawn)	-0.19	0.99
O=C(Cn1cnc2c(nnn2Cc2ccc(F)cc2)c1=O)NCc1ccccc1Cl	-1.7	0.9
CC(C)OCCCNC(=O)c1ccc2c(c1)N(Cc1ccccc1Cl)C(=O)c1ccccc1S2	1.3	1
COc1cccc(-c2cc(C(=O)Nc3c(C)nn(Cc4ccccc4Cl)c3C)no2)c1	-1.8	0.92
O=C(Nc1ccc(-c2nc3ncccc3o2)cc1)c1ccc(-c2ccc(Cl)cc2)o1	-0.14	0.98
Nc1nonc1C(O)c1ccccc1 (stereo not drawn)	0.41	1
Cc1ccc(CSc2oc(-c3cccs3)nc2S(=O)(=O)c2ccccc2)cc1	-0.036	0.98
